Screening results deposited in PubChem BioAssay by National Center for Advancing Translational Sciences (NCATS).
Rango dissoc inh: qHTS Assay for Inhibitors of RanGTP induced Rango (Ran-regulated importin-beta cargo) - Importin beta complex dissociation. Snurportin-1 (Homo sapiens) + GTP-binding nuclear protein Ran (Homo sapiens) + Importin …. Biochemical FRET Rango-importin beta, RanGTP-induced dissociation. Potency, µM (doses to about 46.1 µM), for the others: at the top dose activity change, negative = inhibition. actives 0.071% (n = 340,000). AID 540253, 2011; active means falling FRET ratio curve, often poorly fitted, with flat reads before Ran was added; inconclusive means other falling curves, or compound fluorescence or quenching; inactive means flat or rising ratio curve;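 also: potency is read from the fitted curve at half-maximal effect; % of control where 0% means no effect; nearly all actives have a fitted effect of over 45% in size; -100% = wells without RanGTP and RCC1; the record marks most hits as doubtful in a second field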
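Recombinant Rango FRET biosensor (EYFP–snurportin 1 IBB–cerulean CFP10) at 0.1 uM premixed with 0.25 uM importin beta in PBS, 1 mM DTT, 0.02% Tween-20, 0.1% BSA. Compound added 5 min; RanGTP-RCC1 (0.6 uM Ran, 2 mM GTP, 0.2 uM RCC1) then triggers release, read at 45 min.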
Rango-impB inh: qHTS Assay for Inhibitors of Rango (Ran-regulated importin-beta cargo) - Importin beta complex formation. actives 0.031% (n = 340,000). Rango CFP/YFP FRET sensor + importin beta, 45 min. Potency, µM (doses to about 92.2 µM), for inactives: at the top dose inhibition of complex formation. AID 540263, 2011. Importin subunit beta-1 (Homo sapiens), Q14974; active = rising FRET ratio curve, often small or poorly fitted; inconclusive = mostly compound fluorescence or quenching in the first reads; inactive = flat curves in all reads;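 also: potency is read from the fitted curve at half-maximal effect; 0% = DMSO wells and 100% = buffer wells lacking importin beta; nearly all actives have a fitted effect of over 15% in size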
Target sequence (Q14974 whole entry, looked up): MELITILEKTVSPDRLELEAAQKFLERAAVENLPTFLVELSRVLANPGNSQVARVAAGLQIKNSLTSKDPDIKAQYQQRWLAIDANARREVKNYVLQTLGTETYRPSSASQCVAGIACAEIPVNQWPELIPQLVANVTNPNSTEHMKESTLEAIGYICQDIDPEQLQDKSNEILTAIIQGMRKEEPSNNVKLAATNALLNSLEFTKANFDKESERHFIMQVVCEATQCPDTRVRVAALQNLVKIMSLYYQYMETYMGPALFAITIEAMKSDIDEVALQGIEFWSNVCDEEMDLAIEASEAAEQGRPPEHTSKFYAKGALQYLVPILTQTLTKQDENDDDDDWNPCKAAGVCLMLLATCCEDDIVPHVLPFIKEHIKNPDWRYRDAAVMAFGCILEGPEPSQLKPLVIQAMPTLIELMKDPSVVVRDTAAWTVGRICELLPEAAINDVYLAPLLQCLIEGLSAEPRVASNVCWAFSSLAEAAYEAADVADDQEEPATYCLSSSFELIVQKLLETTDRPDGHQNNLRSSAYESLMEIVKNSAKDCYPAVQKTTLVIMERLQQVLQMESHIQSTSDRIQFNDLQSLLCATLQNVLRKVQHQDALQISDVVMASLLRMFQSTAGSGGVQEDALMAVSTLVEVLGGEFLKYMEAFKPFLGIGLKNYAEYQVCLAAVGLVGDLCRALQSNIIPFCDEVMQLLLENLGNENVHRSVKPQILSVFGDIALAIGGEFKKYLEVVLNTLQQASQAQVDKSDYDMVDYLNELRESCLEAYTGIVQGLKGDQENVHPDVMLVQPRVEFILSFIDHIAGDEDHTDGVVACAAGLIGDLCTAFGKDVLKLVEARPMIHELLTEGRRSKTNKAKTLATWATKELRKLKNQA
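FRET biosensor (snurportin 1 IBB flanked by EYFP and cerulean), 50 nM, with compound 5 min, then 0.125 microM importin beta in PBS, 1 mM DTT, 0.02% Tween-20, 0.1% BSA. CFP/YFP ratio read after 45 min at room temperature; pre-read flags interference.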
GLA inh pH 4.5: qHTS Assay for Inhibitors of Human alpha-Galactosidase at pH 4.5. purified enzyme, 4-MU-alpha-Gal fluorescence, pH 4.5. Alpha-galactosidase A (Homo sapiens), P06280. activity change, negative = inhibition, % at 105 µM. 230,000 tested, under 10 active; inconclusive = small, poorly fitted or top-dose-only inhibition, or a rising curve; inactive = flat fitted curve, though single readings scatter; no compound was filed as active;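 also: 0% = full activity with enzyme and -100% = basal without enzyme; dose as in the result columns while the protocol names 77 µM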
miR-21 FLuc: qHTS Assay for Modulators of miRNAs and/orActivators of miR-21; Potency, µM (titrated, usually from 38.3 µM), for the others: at the top dose reporter change, positive = more light; HeLa miR-21 FLuc reporter, luciferase, 48 h; 340,000 tested, under 10 active; active = well fitted rising curve with a large enough effect; inconclusive = small, poorly fitted or top-dose-only effect; inactive = no such curve, though single readings can be large or run the other way;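 also: % of control where 0% means no effect; miR-21 action dims this reporter so a rising signal means less miR-21 action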
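HeLa cells endogenously expressing miR-21, stably carrying CMV-driven firefly luciferase with a downstream miR-21 binding site, 2000 cells/well. Titrations up to approximately 40 uM, 48 hours; luciferase luminescence read.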
The depositor's hits bear a star; ? = inconclusive; nt = not tested or not shown; & = joins results of further samples; [ ] = another dose, or the depositor's remark. An excerpt; the hit share may differ from the screen's.

SMILES	Rango dissoc inh	Rango-impB inh	GLA inh pH 4.5	miR-21 FLuc
Oc1cccc(-c2nc3ccc4ccccc4c3c3c2CCC3)c1	8%	-1.0%	-7	-77%
O=C(O)c1ccccc1/C=N/NC(=S)NCc1ccccc1	11%	0.1%	1	0%
Nc1ccc2nc(CCc3ccccc3)[nH]c2c1	-26%	-2.9%	-2	-49%
O=S(=O)(Nc1cccc(-n2cnnn2)c1)c1ccc(Cl)cc1	-7%	-2.2%	nt	-3%
O=C(CSc1ccc2ccccc2c1)Nc1ncccn1	5%	0.3%	1	-6%
CCOC(=O)C1=C(N)n2c(s/c(=C\c3cccnc3)c2=O)=C(C(=O)OC)C1c1cccnc1 (centres undefined)	?	-2.8%	nt	nt
Cc1cc(=O)oc2c1c(C)nn2-c1ccc(C(=O)OC(C)C)cc1	nt	nt	-5	-10%
OC(COCC1COc2ccccc2O1)CN1CCN(c2ccccn2)CC1 (centres undefined)	12%&-8%	8.0%&7.9%	7	-6%
CS(=O)(=O)NCc1nnc(SCc2ccc(C(F)(F)F)cc2)o1	9%	-0.9%	6	-5%
COc1cccc([C@@H]2CC=C(C(=O)O)[C@H](c3ccc(F)cc3)N2S(=O)(=O)c2ccc(C)cc2)c1	-13%	1.7%	nt	nt
N=C1C(c2nc3ccccc3s2)=C(O)CN1NC(=O)c1ccco1	10%	?	-6	-32%
CC1CCN(C(=O)c2ccccc2NC(=O)c2cccc(S(=O)(=O)N3CCOCC3)c2)CC1	9%	3.5%	0	-9%
Cc1ccc(C)c(S(=O)(=O)N2CCN(CC(=O)Nc3sccc3C#N)CC2)c1	33%	-0.9%	1	-9%
C[C@H]1C=C(C(=O)NCc2ccccc2)O[C@@H](OCc2ccc(CO)cc2)C1	4%	0.6%	10	0%
COc1cc(CN2CCN(c3ccc(C)cc3)CC2)cc([N+](=O)[O-])c1O	6%	6.4%	-5	-13%
CCN1C(=O)C2(C(C#N)=C(N)Oc3c2c(C)nn3-c2ccccc2)c2ccccc21 (centres undefined)	6%	-0.8%	-1	-5%
Cc1oc(-c2cccc(Cl)c2)nc1CN1CCC(C(=O)NC2CC2)CC1	2%	-1.3%	nt	2%
COc1ccc2oc(C(=O)OCC(=O)N(C)C3CCCCC3)c(C)c2c1	-3%	2.1%	nt	nt
N#Cc1c(C(F)(F)F)cc(=O)[nH]c1SCC(=O)O	0%	0.9%	4	-1%
O=C(Nc1cccnc1)c1ccc([N+](=O)[O-])s1	10%	-0.1%	nt	nt
CCn1ccc(C(=O)NC2C(=O)N3C(C(=O)O)=C(C)CSC23)n1 (centres undefined)	25%	0.8%	3	0%
CSc1nc2c(c(=O)[nH]1)CCCC2	5%	-1.6%	7	-5%
Nc1ccc2nc(-c3ccccc3)cnc2c1	?	?	nt	nt
C=CCSC1=N/C(=C\c2cccnc2)C(=O)N1c1ccc(OC)cc1	0%	-0.3%	-4	1%
Cc1ccccc1OCC(O)CN1CCN(CC(O)COc2ccccc2C)CC1 (centres undefined)	14%	-0.1%	4[21.1 µM]	0%
CC(=O)Oc1ccc(/C=C2/Oc3ccccc3C2=O)cc1	?	?	2	-51%
CCOc1cc(/C=N/NC(=O)c2cc(C3CC3)[nH]n2)ccc1O	-5%	-0.5%	-19	-2%
COc1cc([N+](=O)[O-])ccc1NC(=S)NNC(=O)c1ccc2c(c1)OCO2	-9%	1.1%	nt	-12%
O=C(CSc1nnc(NC(=O)c2c(F)cccc2F)s1)NCc1ccccc1	10%	-4.2%	nt	-12%
COC(=O)C(NC(C)=O)(Nc1nc(C)cs1)C(F)(F)F (centres undefined)	-13%	-0.3%	-3	-1%
COc1ccccc1/C=C/C(=O)Nc1ccc(S(=O)(=O)Nc2cc(C)nc(C)n2)cc1	5%	2.5%	nt	-2%
CC(NC(=O)CCc1nnc(Cc2cccc(C(F)(F)F)c2)o1)C1CC1 (centres undefined)	-21%	-0.2%	1	-48%
O=C(Nc1ccc2nc(-c3ccccc3)[nH]c2c1)c1ccco1	0%	2.3%	-3	-43%
CN(C)c1ccnc(-n2cccc2/C=N/OCc2ccccc2)c1C#N	12%	5.1%	1	-8%
COc1cc(C(=O)NC(=S)N2CCCCCC2)cc(OC)c1OC	15%	-0.2%	-2	1%
O=C(NNc1nc2ccccc2nc1C(F)(F)F)c1ccccc1	-9%	4.4%	-2	-4%
O=C1NC(=O)C2C1C(c1cccs1)NN2Cc1ccccc1 (centres undefined)	-13%	2.3%	2	-1%
CCN(CC1CCCO1)C(=O)C1CCN(C2CCN(Cc3ccccc3C)CC2)CC1 (centres undefined)	-13%	-1.7%	nt	5%
O=C(NCc1cccnc1)C(=O)N/N=C/c1ccccc1[N+](=O)[O-]	13%	-1.4%	-2	-2%
CCOc1oc(-c2ccc(OC)cc2)nc1C(F)(F)F	-16%	0.2%	-1	-4%
C=CCNC(=O)C1CCN(c2cnccn2)CC1	-3%	4.6%	0[21.1 µM]	-3%
CCCCSc1nc2c(cnn2-c2ccc(F)cc2)c(=O)[nH]1	-4%	?	-5	-8%
Cc1ccc(C(=O)OC2CCOC2=O)cc1NC(=O)c1ccco1 (centres undefined)	-13%	-3.0%	-14	-3%
COc1cc2sc(-c3ccc(S(C)(=O)=O)cc3)c(-c3ccc4c(c3)OCO4)c2cc1OC	-15%	1.4%	nt	nt
C=CCn1c(SCC(=O)Nc2ncc(Cc3ccc(C)c(Cl)c3)s2)nnc1-c1ccncc1	0%	2.9%	-2	-1%
Cc1ccc(C(C)C)c(OCCCCN2CCNCC2)c1	1%	5.0%	nt	-9%
Cc1cn(C2CCCO2)c(=O)nc1N (centres undefined)	15%	4.7%	nt	nt
C/C=C\C=C/C(=O)Nc1cccc(C2=NOC3(C2)C[C@@H](C(N)=O)N(C(=O)/C=C/CC)C3)c1 (some centres undefined)	-12%	-4.2%	0	-1%
COc1ccc(CNc2nc3ccccc3n2Cc2ccccc2)cc1OC	0%	0.9%	-21	10%
Cc1cc(Nc2ccccc2)n(-c2nc3ccccc3[nH]2)n1	-6%	4.4%	-8	20%
CCOC(=O)/C=C1\SCC(=O)N1CC(=O)Nc1ccc2c(c1)CCC2	5%	1.8%	-2	-6%
CCc1cccc(NC(=O)c2ccc(Cn3c(=O)[nH]c4ccsc4c3=O)cc2)c1	14%	-1.3%	2	2%
CCOc1ccc(N(C(C)C(=O)N2CCCC2)S(C)(=O)=O)cc1 (centres undefined)	-2%	-5.6%	nt	3%
O=c1[nH]c(/C=C/c2ccccc2F)nc2ccccc12	-2%	2.8%	nt	-27%
CCN(CC)CCNC(=O)C1CCC(=O)N1CCc1ccccc1 (centres undefined)	7%	-2.1%	-11	-1%
O=C(NNC(=O)c1cnccn1)c1cccc([N+](=O)[O-])c1	4%	4.3%	-9	-7%
O=C(CSc1nnnn1-c1cccnc1)Nc1ccc(OCc2ccccc2)cc1	-24%	-3.4%	-1	7%
COc1ccc(-n2c(=S)[nH]c3cc(C(=O)Nc4ccc(OC)c(OC)c4)ccc3c2=O)cc1	1%	0.2%	1	-18%
COc1ccc(-c2[nH]nc3c2C2(C(=O)N(CC(=O)O)c4ccccc42)C(C#N)=C(N)O3)cc1OC (centres undefined)	-3%	-3.6%	3	0%
CCc1ccc(NC(=O)CS(=O)CC(=O)Nc2ccc(F)cc2F)cc1 (centres undefined)	-7%	-2.4%	-7	-2%

In another format: 3 of the compounds above
Below each SMILES: Rango dissoc inh, Rango-impB inh, GLA inh pH 4.5, miR-21 FLuc
> O=C(CSc1nnnn1-c1cccnc1)Nc1ccc(OCc2ccccc2)cc1
→ -24%, -3.4%, -1, 7%
> COc1ccc(-n2c(=S)[nH]c3cc(C(=O)Nc4ccc(OC)c(OC)c4)ccc3c2=O)cc1
→ 1%, 0.2%, 1, -18%
> COc1ccc(-c2[nH]nc3c2C2(C(=O)N(CC(=O)O)c4ccccc42)C(C#N)=C(N)O3)cc1OC (centres undefined)
→ -3%, -3.6%, 3, 0%

Next section.
SMILES	Rango dissoc inh	Rango-impB inh	GLA inh pH 4.5	miR-21 FLuc
CCC(C)c1ccc(NC(=O)C2CC2)cc1 (centres undefined)	1%	-4.0%	-8	-51%
O=C(c1cn(-c2ccccc2)nc1-c1cccnc1)N1CCN(S(=O)(=O)c2ccc(Cl)cc2)CC1	-16%	-1.1%	nt	nt
COc1ccc(N(C)S(=O)(=O)c2c(C)[nH]c(=O)[nH]c2=O)c(OC)c1	-10%	-0.6%	2	-3%
CC(OC(=O)c1cccc(-n2cnnn2)c1)C(=O)Nc1ccc(F)cc1Cl (centres undefined)	-1%	-1.5%	nt	nt
O=C(NCc1ccccc1F)c1cccc(S(=O)(=O)NCc2ccccc2)c1	3%	0.5%	nt	1%
CN(C)c1ccc(C(=O)NNC(=O)c2ccc(Cl)cc2)cc1	0%	-0.5%	0	-18%
O=C(c1cc(-c2ccc(Cl)cc2)n(-c2ccc(Cl)cc2)n1)N1CCOCC1	1%	-5.3%	-4	-2%
CC1CCCN(C(=S)NCc2ccccc2)C1 (centres undefined)	-14%	2.7%	4	-9%
COc1ccc(CN2CCC(C(=O)Nc3ccc(Oc4cccnc4)cc3)CC2)c(C)c1C	-3%	2.5%	nt	7%
O=C(O)[C@H](Cc1ccccc1)NC(=O)N1CCC(Cc2ccccc2)CC1	0%	0.3%	-4	0%
CCCOc1ccc(C(=O)N2CCCC2)cc1OC	35%	-1.8%	-6	-4%
COc1ccc(CCNC(=O)CN(C2CCCCC2)S(C)(=O)=O)cc1	12%	0.1%	0	-1%
CC(C)CNC(=S)N1CCC(C(=O)c2ccc(F)cc2)CC1	-15%	-2.2%	nt	11%
COc1ccc(NC(=O)Nc2cc(C)cc(C)c2)cn1	-24%	-1.1%	-6	-10%
CCOc1cc(N2CCOCC2)c(OCC)cc1NC(=O)Cn1cnnn1	22%	2.8%	nt	nt
O=C(Cn1nnc(-c2ccc(CN3CCOCC3)cc2)n1)NC1CCCCC1	-12%	-0.6%	-3	-9%
COc1cccc(N2CCN(C(=O)c3ccc4nc[nH]c4c3)CC2)c1	-10%	0.0%	nt	-31%
O=C(N/N=C/c1c(O)ccc2ccccc12)c1[nH]ncc1Br	?	?	-8	-26%
O=c1c2ccccc2[nH]c(=S)n1CCc1ccccc1	7%	-0.1%	-1	-41%
CC(C)(C)OC(=O)N1CCN(C(=O)c2[nH]cnc2C(=O)Nc2ccon2)CC1	4%	-4.5%	nt	nt
O=C(Nc1ccc(F)cc1)c1ccc(S(=O)(=O)NCC2CCCO2)cc1 (centres undefined)	14%	4.8%	-1	17%
Oc1ccccc1Nc1nc(-c2ccccc2O)nc2ccccc12	-4%	5.3%	nt	-7%
CCN(CC)S(=O)(=O)c1ccc(NC(=O)CCNC(=O)c2ccccc2)cc1	12%	-0.2%	nt	-3%
Cn1c(=O)c2c(nc(CN3CCN(C(=O)c4ccco4)CC3)n2CCCO)n(C)c1=O	8%	-1.7%	nt	-4%
CCOc1cc(C(C#N)N2CCCCC2)ccc1OC (centres undefined)	19%	-1.6%	4	0%
O=C(NCCN1CCN(Cc2ccc([N+](=O)[O-])cc2)CC1)C(=O)Nc1ccccc1	16%	-5.7%	1	-3%
Cc1c(C(=O)OC(C)C)[nH]c2c1C(=O)CC(C)(C)C2	-1%	-1.3%	8	-16%
COc1ccc(CCNC(=O)CSc2nnc(-c3ccccc3)c3ccccc23)cc1OC	-16%	0.2%	1	-8%
Cc1ccc(C(=O)NCC(=O)N2CCCCCCC2)cc1C	5%	-2.2%	nt	nt
NNc1nc2c(Cl)ccc(Cl)c2s1	-17%	?	-4	3%
COc1cccc(OC)c1NC(=O)c1nc2c(nnn2Cc2ccccc2Cl)c(=O)[nH]1	34%	1.2%	-6	-34%
